From PubChem
VDR inh = Inhibitors of the vitamin D receptor (VDR): qHTS | hit rate 0.93% among 400,000 | Vitamin D3 receptor (Homo sapiens), P11473 | Potency, µM, for the others: max response, negative = inhibition, hits mostly inhibitors | AID 504847, 2011 | VDR-SRC2-3 peptide fluorescence polarization, 2 h; active = well fitted inhibition curve with a large enough effect; inconclusive = small, poorly fitted or top-dose-only effect, or another doubt; inactive = no such curve, though single readings can be large or run the other way; note: series mostly up to about 120 µM
Target sequence (P11473 whole entry, looked up): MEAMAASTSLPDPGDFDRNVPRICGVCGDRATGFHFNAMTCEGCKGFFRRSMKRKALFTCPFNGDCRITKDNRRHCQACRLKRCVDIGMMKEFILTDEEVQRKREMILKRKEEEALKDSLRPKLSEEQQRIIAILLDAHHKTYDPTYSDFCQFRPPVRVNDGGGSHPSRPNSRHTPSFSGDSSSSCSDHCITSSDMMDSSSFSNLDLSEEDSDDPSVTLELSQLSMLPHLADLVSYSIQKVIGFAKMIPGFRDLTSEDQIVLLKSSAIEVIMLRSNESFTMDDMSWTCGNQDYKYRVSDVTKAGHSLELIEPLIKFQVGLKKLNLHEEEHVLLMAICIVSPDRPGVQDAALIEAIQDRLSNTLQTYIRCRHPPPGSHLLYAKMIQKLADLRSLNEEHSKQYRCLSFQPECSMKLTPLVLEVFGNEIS
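Compounds are added to VDR with labelled SRC2-3 coactivator peptide and held 2 h at room temperature. Inhibition of the VDR–peptide interaction is then read as a change in fluorescence polarization.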
Numbers without * were called inactive; ? = inconclusive; & = joins results of further samples. % is set by controls: 0 for no effect and ±100 for the full control effect; potency is the fitted concentration of half-maximal effect.

SMILES | VDR inh
O=[N+]([O-])c1ccc2oc(-c3ccccc3)nc2c1 | -10%
Cc1ccc(N=C2NC(=O)/C(=C/c3cccnc3)S2)c(C)c1 | ?
O=C(NCCc1ccccc1)C(=O)Nc1nccs1 | -6%
O=C(OCC(F)(F)F)c1cccc(COc2ccc3ccccc3c2)c1 | 1%
Cc1cccc(-c2nn(-c3ccccc3)cc2C(=O)N2CCN(C3CCS(=O)(=O)C3)CC2)c1 (stereo not drawn) | -23%
C=CCN(c1ccc(C(=O)N2CCCC2)cc1)S(C)(=O)=O | -14%
c1ccc(CNc2ncnc3sc4c(c23)CCCC4)nc1 | -9%
C=CCN1c2ccccc2[C@]23C[C@@H](C(=O)OC)N(C(=O)NCCC)C2=NC(C(=O)OC)=C(C(=O)OC)[C@H]13 | -6%
CC(=O)c1ccc(N=Nc2ccc(C)cc2)cc1 | -10%
COc1ccc2cc(CNc3ccc(C)cc3)c(=O)n(CC(=O)Nc3ccc(OC)c(Cl)c3)c2c1 | 0%
C/C(=N\NC(=O)COc1ccccc1F)c1cc2ccccc2o1 | -12%
Nc1nc(CSc2ncccn2)nc(Nc2ccccc2)n1 | 9%
Cc1ccc(NC(=O)COC(=O)Cn2cnc3c2c(=O)n(C)c(=O)n3C)cc1F | -9%
COc1ccc(Nc2nnc(SC(C(=O)Nc3cc(C)ccc3C)c3ccccc3)s2)cc1 (stereo not drawn) | -15%
COc1ccccc1Nc1nc(NCCC(C)C)nc(N)c1[N+](=O)[O-] | -13%
O=C(c1ccco1)N1CCN(Cc2cc(=O)oc3cc(O)ccc23)CC1 | 8%
Cc1onc(-c2c(Cl)cccc2Cl)c1C(=O)c1c[nH]c(C(=O)NC2CC2)c1 | 2%
Cc1nc(SCC(=O)NCC2CCCO2)[nH]c(=O)c1C (stereo not drawn) | -9%
CC(C)CN(CC(C)C)C(=O)c1cc2c(=O)n3ccccc3nc2s1 | -12%
O=C(CSc1nnc2ccc(-c3ccncc3)nn12)Nc1ccc(F)cc1 | -18%
Cc1cccc(NC(=O)CCSc2ccccn2)c1 | -15%
COc1cc(C)nc(OCCNC(=O)COc2ccc(Cl)cc2Cl)n1 | -3%
CC(C)CCNC(=S)NC1CCCC1 | 0%
COc1ccc([C@@H]2CC(=O)c3c(O)cc(O[C@@H]4O[C@H](CO)[C@@H](O)[C@H](O)[C@H]4OC4O[C@@H](C)[C@H](O)[C@@H](O)[C@H]4O)cc3O2)cc1O (stereo partly drawn) | 20%
O=C(Oc1ccccc1OC(=O)N1CCOCC1)N1CCOCC1 | -12%
CCN(CC)CCNC(=O)c1c(C)oc2ncn(C)c(=O)c12 | 2%
O=C(CSc1ncccc1-c1nc2ccccc2[nH]1)N1CCc2ccccc21 | 5%
CCOc1ccc(NCc2cccn2-c2nnc(N3CCC(C(=O)NCCCN4C(C)CCCC4C)CC3)s2)cc1 (stereo not drawn) | -13%
COc1cccc(NC(=O)CN(C)C(C)C(=O)NC(=O)NC2CCCCC2)c1 (stereo not drawn) | -1%
O=C1N/C(=N/N=C/c2ccc(O)cc2)SC1Cc1ccccc1 (stereo not drawn) | 6%
CN(CCOC(=O)c1ccc2c(c1)OCCO2)Cc1ccccc1 | 17%
CC1(C)OC2OC(C(=O)N/N=C/c3ccccc3F)C3OC(C)(C)OC3C2O1 (stereo not drawn) | -5%
CNC(=S)N(Cc1ccc(OC)cc1)Cc1cc2cc(C)ccc2[nH]c1=O | -6%
Cc1onc(-c2ccccc2)c1C(=O)Nc1cccc(S(=O)(=O)N2CCCCC2)c1 | 2%
CCCCn1c(N)c(N(CCOC)C(=O)c2cc(C)oc2C)c(=O)[nH]c1=O | -14%
CN1CCN(Cc2cc(=O)oc3ccc(Cl)cc23)CC1 | -5%
NCCC(=O)N[C@H](Cc1cnc[nH]1)C(=O)O | 3%
CCC(=O)N1CCc2cc(Br)cc(S(=O)(=O)CCC(=O)N3CCN(c4ccc(F)cc4)CC3)c21 | -5%
C=CCNc1nc2ccccc2nc1NS(=O)(=O)c1ccc(OC)cc1 | -9%
Cc1cc(C)c2c(=O)[nH]c(SCc3ccc([N+](=O)[O-])cc3)nc2n1 | -5%

5 compounds picked at random from the list so far:
SMILES | VDR inh
CCC(=O)N1CCc2cc(Br)cc(S(=O)(=O)CCC(=O)N3CCN(c4ccc(F)cc4)CC3)c21 | -5%
CNC(=S)N(Cc1ccc(OC)cc1)Cc1cc2cc(C)ccc2[nH]c1=O | -6%
COc1cccc(NC(=O)CN(C)C(C)C(=O)NC(=O)NC2CCCCC2)c1 (stereo not drawn) | -1%
CC1(C)OC2OC(C(=O)N/N=C/c3ccccc3F)C3OC(C)(C)OC3C2O1 (stereo not drawn) | -5%
Cc1onc(-c2ccccc2)c1C(=O)Nc1cccc(S(=O)(=O)N2CCCCC2)c1 | 2%

Carrying on:
SMILES | VDR inh
O=C(Nc1ccccc1)c1cc([N+](=O)[O-])ccc1NC1CCCCC1 | -13%
COc1ccccc1CN1CCNC(=O)C1CC(=O)NC1CCCCCC1 (stereo not drawn) | -5%
O=C(Nc1ccc(S(=O)(=O)N2CCOCC2)cc1)c1nn(-c2ccc(F)cc2)ccc1=O | 3%
CC(=O)c1ccc(OC(=O)CCN2c3ccccc3Sc3ccccc32)cc1 | 5%
Cc1nc(-c2ccc(F)cc2)c(CC(=O)N2CCN(S(=O)(=O)c3ccccc3Br)CC2)s1 | 1%
COc1cn(CC(=O)Nc2ccc(C)cc2)c(CN2CCCCC2)cc1=O | 1%
N#Cc1nc(N(c2ccccc2)c2ccccc2)nc(-n2cccc2)n1 | -15%
Cc1csc(SC(C)C(=O)Nc2ccc(Cl)cn2)n1 (stereo not drawn) | -3%
CCCNC(=O)CSc1nc(-c2cccs2)cc(C(F)(F)F)n1 | -2%
CC(C)C(=O)Nc1cccc(C(=O)Nc2nccs2)c1 | 12%
COC(=O)CSc1nc(C)c2ccc(OC)cc2n1 | -8%
O=C(/C=C/c1ccccc1)Nc1cccc(S(=O)(=O)Nc2ccccc2F)c1 | 11µM*
Cc1ccc(Cn2cnc3nc4c(cc3c2=O)CCCC4)cc1 | 7%
Cc1ccc(-n2ncc3c(N4CCN(c5ccccc5)CC4)ncnc32)c(C)c1 | -7%
O=[N+]([O-])c1ccc(-c2c(O)c3ccccc3c3nc4ccccc4nc23)cc1 | -9%
CC1CCCC(C)N1S(=O)(=O)c1ccc(NC(=O)CNC2CCCC2)cc1 (stereo not drawn) | 12%
Cc1c(NC(=O)c2cn3ccccc3n2)cccc1-n1cnnn1 | 17%
O=S(=O)(c1cccc(F)c1)N1CCN(c2nc(-c3cccs3)nc3ccccc23)CC1 | -15%
O=C(O)c1ccc2c(c1)C(=O)N(c1cc(C(=O)O)ccc1Br)C2=O | 6%
O=C(CCN1C(=O)/C(=C/C=C/c2ccccc2)SC1=S)Nc1nccs1 | 11%
CCOC(=O)c1c(N)n(-c2cccc(OC)c2)c2nc3ccccc3nc12 | 8%
Cn1nnc2cc(C(=O)NC3CCCCC3)ccc21 | 4%
COc1ccc(-c2csc(NC(=O)CCCc3cccs3)n2)cc1 | -16%
Nc1nc(Nc2ccccc2)nc(NCCO)c1[N+](=O)[O-] | -11%
CC1=NN(C(=O)c2ccc(Cn3ccc([N+](=O)[O-])n3)cc2)C(O)(C(F)(F)F)C1 (stereo not drawn) | 15%
CCCCNC(=O)CSc1cc(=O)n(C)c2ccccc12 | -2%
Cc1ccccc1NC(=O)CCCN1C(=O)C2CC=CCC2C1=O (stereo not drawn) | 1%
Cc1ccccc1Cn1c2ccccc2c2cnn(CC(=O)N3CCN(c4ccccc4)CC3)c(=O)c21 | -4%
Cc1ccc(S(=O)(=O)NCc2c(Cl)cccc2Oc2ccccc2)cc1 | -17%
O=S(=O)(c1ccc(Cl)cc1)N(CCCN1CCOCC1)Cc1cccs1 | 2%
COc1ccc(/C=N/NC(=O)CCC(=O)Nc2ccc(Br)cc2)c(OC)c1 | -10%
O=C1NC[C@H](Cc2ccccc2)N(C[C@H]2CCCN2C[C@H](Cc2ccc(O)cc2)N2C[C@H](Cc3ccc(O)cc3)N(CC3CCCCCC3)C(=O)C2=O)C1=O | -12%
CCOc1ccc(-c2cc3c(=O)n(CC(=O)NCc4ccc(OC)cc4)ccn3n2)cc1 | 13%
CCn1c(C)cc(C(=O)COC(=O)c2ccccc2[N+](=O)[O-])c1C | -16%
CCOC(=O)c1cc2c(nc1NC(=S)Nc1ccccc1)CC(C)(C)OC2 | -7%
CC(C)(CNC(=O)c1ccc(NS(=O)(=O)c2ccc(F)c(F)c2)cc1)N1CCOCC1 | -11%
O=C(C1CCCN(S(=O)(=O)c2cnc[nH]2)C1)N1CC(=O)N(CCc2ccccc2)C(=O)C1 (stereo not drawn) | 8%
CC1NC(C(=O)O)Cc2c1[nH]c1ccccc21 (stereo not drawn) | 3%
CCN(CC)CCNC(=O)c1ccc2c(c1)NC(=O)c1ccccc1S2 | -20%
NS(=O)(=O)c1ccc(NC(=O)CSc2nnc3n2CCCCC3)cc1 | -10%
O=C(COc1ccccc1)Nc1nc(-c2cccnc2)cs1 | 8%
O=C1C=CC(=Nc2cccc3c2C(=O)c2ccccc2-3)O1 | ?
C#CCNC(=O)C1=C[C@H](C(C)(C)C)C[C@H](OCCCCO)O1 | -10%
COC(=O)c1cc(C)c(C)cc1NC1OC(CO)C(O)C1O (stereo not drawn) | 0%
CCOC(=O)C1CCN(C2=NC(=O)/C(=C/c3ccc(Cl)cc3)S2)CC1 | -4%
Cc1ccc(-c2c(C(=O)N/N=C/c3ccco3)nnn2-c2nonc2N)cc1 | 3%
Cc1ccc(C)c(N2CCN(C(=O)CCn3c(=O)c4cccn4c4cccnc43)CC2)c1 | 7%
COc1cc(NC(=O)CSCc2ccc(Cl)cc2Cl)c(C(=O)O)cc1OC | -7%
CCOc1ccc2nc3c(cc2c1)CN(CCOC)C(=NCCOC)S3 | -11%
Cc1cc(NC(=O)COC(=O)C2CC(=O)N(c3ccccc3Cl)C2)no1 (stereo not drawn) | -1%
COc1ccc(OC)c(CCNC(=O)c2c(C)oc3ncn(CC(C)C)c(=O)c23)c1 | 13%
O=C(NCc1ccco1)c1c2c(nc3ccccc13)CCC2 | 1%
CCN(c1ccccc1)S(=O)(=O)c1ccc(NC(=O)c2nc(S(C)(=O)=O)ncc2Cl)cc1 | 40µM*
CCCCOC(=O)c1ccc(NC(=O)CSc2nc3c(c(=O)[nH]2)CCC3)cc1 | 20%
Cc1ccc(N(C(=O)c2snc(C(N)=O)c2N)C(C(=O)NCc2ccccc2)c2ccncc2)c(C)c1 (stereo not drawn) | 0%
CC(C)c1nn2c(=O)cc(COC(=O)c3cccc(NC(=O)c4ccccc4F)c3)nc2s1 | 8%
CCOc1ccc(Nc2sc(C(=O)c3ccc(F)cc3)c(N)c2S(=O)(=O)c2ccc(C)cc2)cc1 | 8%
CNC[C@@H]1Oc2ccc(NS(=O)(=O)c3ccc(OC)cc3)cc2CC(=O)N([C@H](C)CO)C[C@@H]1C | -6%
O=C(C[C@@H]1C/C=C\CC[C@H](Cc2ccc(F)cc2)C(=O)OC[C@@H]2CCCN2C1=O)NCCO | -5%
COCCCN1C(=O)c2[nH]nc(-c3cc(C)ccc3O)c2C1c1ccc(F)cc1 (stereo not drawn) | 6%
Additional records.
SMILES | VDR inh
O=C(OCN1C(=O)c2ccccc2C1=O)c1cccnc1SC(F)F | 8%
CC1(C)CC(=O)C(C=NCCN2CCN(C(=O)C34CC5CC(CC(C5)C3)C4)CC2)=C(O)C1 | 12%
CCC(C)C(=O)Nc1nc(C)c(-c2csc(Nc3ccc(Cl)cc3)n2)s1 (stereo not drawn) | 3%
O=C(CC1Oc2ccccc2NC1=O)NCCCN1CCN(Cc2ccccc2)CC1 (stereo not drawn) | 8%
C/C(CC(=O)Nc1ccc(C)c(Cl)c1)=N\NC(=O)C1CCCCC1 | 11%
COc1cccc(NC(=O)C2CCN(S(=O)(=O)c3ccc4[nH]c(=O)oc4c3)CC2)c1 | -2%
O=C(NCc1ccco1)c1ccc(-c2ccc(Cl)cc2)o1 | 11%
CN(CC(=O)Nc1ccc(Cl)c(C(F)(F)F)c1)C(=O)C1CSC2(C)CCC(=O)N12 (stereo not drawn) | 9%
COc1ccc(CN(Cc2ccccc2)C(=O)c2cccc(C#N)c2)cc1COc1ccc(NC(C)=O)cc1 | -11%
COc1ccc(C)cc1S(=O)(=O)N(CC(=O)O)c1ccc(C)cc1 | 4%
Cc1ccc(CN2CCNC(=O)C2CC(=O)N(C)Cc2cnccn2)cc1 (stereo not drawn) | -30%
NCCCCCCNS(=O)(=O)c1cccc2c(Cl)cccc12 | 2%&2%
CN(C)c1ncc2nc(-c3ccccc3)c(=O)n(CCC#N)c2n1 | 10%
COc1ccc(S(=O)(=O)N2CCCCC2)cc1NC(=O)C1CC(=O)N(c2ccc3c(c2)OCCO3)C1 (stereo not drawn) | -12%
O=C(CCCN1C(=O)S/C(=C\C=C\c2ccccc2)C1=O)Nc1ccc(C(=O)O)cc1 | ?

By substructure: those above with a thiophene ring, fused or not
SMILES | VDR inh
c1ccc(CNc2ncnc3sc4c(c23)CCCC4)nc1 | -9%
CC(C)CN(CC(C)C)C(=O)c1cc2c(=O)n3ccccc3nc2s1 | -12%
CCCNC(=O)CSc1nc(-c2cccs2)cc(C(F)(F)F)n1 | -2%
O=S(=O)(c1cccc(F)c1)N1CCN(c2nc(-c3cccs3)nc3ccccc23)CC1 | -15%
COc1ccc(-c2csc(NC(=O)CCCc3cccs3)n2)cc1 | -16%
O=S(=O)(c1ccc(Cl)cc1)N(CCCN1CCOCC1)Cc1cccs1 | 2%
CCOc1ccc(Nc2sc(C(=O)c3ccc(F)cc3)c(N)c2S(=O)(=O)c2ccc(C)cc2)cc1 | 8%

Three entries from above, as tab-separated lines:
structure	VDR inh
CC1(C)CC(=O)C(C=NCCN2CCN(C(=O)C34CC5CC(CC(C5)C3)C4)CC2)=C(O)C1	12%
CCC(C)C(=O)Nc1nc(C)c(-c2csc(Nc3ccc(Cl)cc3)n2)s1 (stereo not drawn)	3%
O=C(CC1Oc2ccccc2NC1=O)NCCCN1CCN(Cc2ccccc2)CC1 (stereo not drawn)	8%

Only part of the results is shown. The share of hits here may be higher or lower than overall.
